High-throughput results from PubChem.
AID504770: growth inhibition of E. coli YBA685, primary screen, V. cholerae RctB inhibitors | E. coli YBA685 rctB-dependent plasmid, OD600 growth, 3 h; hits give low values | z-score (no concentration beside the values) | 0.27% of 130,000 active | AID 504770, 2011;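 active means z-score under -2 on both plates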;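 further: wells of about 30 µL received 100 nL stock; score is relative to mean and SD of the test wells; the first replicate is given; strong numbers were not always called active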
CapD inh: Bacillus anthracis CapD inhibitors, primary screen, biochemical, fluorescence intensity | purified CapD enzyme, fluorescence intensity read-out; hits give low values; some hits fall short of the stated cut | z-score (no concentration beside the values) | 0.23% of 140,000 active;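 active means z-score under -4 in either of two replicates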;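 further: stock transfer was 100 nL into about 40 µL; score is relative to mean and spread of the plate; one replicate is shown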
* hit, by the source's call; / = not tested or not shown; & = joins results of further samples. Rows were taken by chance; any-hit rate near 0.37%.

SMILES	AID504770	CapD inh
COC(=O)c1sccc1NC(=O)CC1C(=O)NCCN1C(=O)Nc1ccccc1 (stereo not given)	-0.05	-1.03
CCOC(=O)C1=C(C)N=c2s/c(=C\c3cccc(O)c3)c(=O)n2C1c1ccc(OCC)c(OCC)c1 (stereo not given)	/	0.155
Cc1ccc(Nc2cc3sc4ccccc4[nH]c3c3c(=O)c4ccccc4c(=O)c23)cc1	/	-0.035
COc1ccc(-n2nc(C(=O)NCC(=O)NC3CCCC(C)C3C)c3ccccc3c2=O)cc1 (stereo not given)	/	0.365
O=C(O)CSc1nc2ccc(Br)cc2[nH]1	0.2	8.03
Oc1ccc(OCc2ccccc2)c(F)c1	-0.65	0.425
CC1(C(=O)N2CCOCC2)Cc2ccccc2C(=O)O1 (stereo not given)	-1	/
CC(=O)N/C(=C\c1ccc(NC(C)=O)cc1)C(=O)O	1	0.575
CCOC(=O)c1cnc(Nc2nc3ccccc3o2)nc1CN1CCN(c2ccccc2)CC1	-0.05	-0.455
O=C(CCOc1ccccc1)Nc1nnc(-c2ccc(Cl)cc2)o1	2.1	-0.865
COCCOC(=O)c1c(C)oc2c1cc(NS(=O)(=O)c1cc(Cl)ccc1Cl)c1ccccc12	/	-0.64
COc1ccc(CC(=O)NCc2cccc(Cl)c2)cc1OC	-0.85	0.17
CCOc1cccc2c1OC(c1cc(OC)c(OC)c(OC)c1)N1N=C(c3ccco3)CC21 (stereo not given)	/	-0.26
O=C(OCc1c(Cl)nc2sccn12)c1ccc(F)cc1Cl	0.15	-0.035
CCCN1C(=O)/C(=N\OCc2ccc(C#N)cc2)c2ccccc21	-0.55	/
O=C(Nc1ccc(Cl)c(-c2nc3ccccc3o2)c1)c1sc2ccccc2c1Cl	/	0.48
NC(=O)C1CCN(c2ncccn2)CC1	-1.1	8.1
O=C(CCn1c(=O)[nH]c2ccsc2c1=O)Nc1ccc(F)c(F)c1	-0.7	-0.41
O=C(OCCn1cccc1)N1CCN(c2ccccc2Cl)CC1	/	0.6
O=C(c1cccc(Br)c1)N1c2ccccc2Sc2ccc(C(F)(F)F)cc21	/	0.17
COc1ccc(-n2nnnc2C2(N3CCOCC3)CCCCC2)cc1	/	-0.24
CC1(C)C2CCC1(C)C(OC(=O)CSc1nc(N)cc(=O)[nH]1)C2 (stereo not given)	-0.8	0.215
CCn1cc(C2=NOC(C(=O)NCc3ccccc3)C2)c(C)n1 (stereo not given)	-1.25	-0.565
COCCOC(=O)C1=C(C)NC2=C(C(=O)CC(c3ccc(OC)cc3)C2)C1c1ccc(O)c(OC)c1 (stereo not given)	/	1.43
COc1cccc(CNC(=O)c2ccc3c(c2)N(C)CCS3)c1	-0.6	102

New compounds follow.
SMILES	AID504770	CapD inh
S=c1nc(-c2ccccc2)oc2c1CCCC2	0.35	-0.135
COc1cccc(C(=O)N(Cc2nc(-c3ccccc3)no2)C(C)C)c1	0.15	0.09
CC(C)NC(=S)N/N=C/c1cn(-c2ccccc2)nc1-c1cccs1	-0.1	/
CC(C)CNS(=O)(=O)c1ccc(S(=O)(=O)N2CCN(c3ccccc3)CC2)cc1	-0.25	/
CCOC(=O)C1=C(O)/C(=C/c2ccc(O)c(OC)c2)SC1=Nc1ccc(C)cc1	/	-0.51
CCC(C)Cc1c(C)sc2[nH]c(=S)[nH]c(=O)c12 (stereo not given)	0.1	/
O=C(Cn1nnc(N2CCCCC2)n1)c1ccc(Cl)c(Cl)c1	0.5	0.145
CCCCCSc1ncn[nH]1	/	-0.665
O=C(NCCN1C(=O)S/C(=C\c2ccc(OC(F)F)cc2)C1=O)C1COc2ccccc2O1 (stereo not given)	1.3	/
CCC1SC(CC)C(=O)N(CC(=O)Nc2ccccc2)C1=O (stereo not given)	-1.15	0.085
O=C(OC(C(=O)NC1CCCC1)c1ccccn1)c1cccs1 (stereo not given)	-0.65	/
Nc1ccn(C2OC(CO)C(O)C2OP(=O)(O)O)c(=O)n1 (stereo not given)	/	0.505
COc1cc(Br)cc(C=Nc2ccc3nc(C)c(C)nc3c2)c1O	/	-0.715
NC(=O)c1c(N)c(C(N)=S)n2c1CCC2	-1.15	0.645
C=CCNS(=O)(=O)c1ccc(C)cc1	0	0.055
CCCCNc1ncnc2c1c(-c1ccccc1)cn2-c1ccccc1	/	-0.735
COc1ccc(NC(=O)CN2CC(C)OC(C)C2)cc1OC (stereo not given)	0.95	/
CN(C(=O)c1ccccc1)c1ccc(OCC(=O)N2CCc3ccccc3C2)cc1	0.35	0.195
O=C(CCn1c(=O)oc2ccccc21)N(Cc1ccccc1)c1ccccn1	0.85	0.115
Cc1nc(C(=O)Nc2ccc(F)cc2F)nn1-c1cc(Cl)cc(Cl)c1	/	-0.3
Cc1ccccc1Cn1c(Cc2ccccc2)nc2ccccc21	-0.35	-0.355
CCOC(=O)c1cnc2ccc(OC)cc2c1Nc1ccc(C(F)(F)F)cc1	/	-0.05
CCCCC(CC)CN1CN(CC(CC)CCCC)CC(C)(N)C1 (stereo not given)	-0.15	-0.635&-0.02
O=C(Cn1cccc1C(=O)c1ccccc1)NCc1ccccn1	0.6	-0.055
CCOC(=O)c1oc2ccccc2c1NC(=O)c1cccs1	0.2	0.1

Going on with the list.
SMILES	AID504770	CapD inh
COc1cc(C(F)(F)F)c(C(=O)N(C)Cc2ccc(Cl)c(Cl)c2)cn1	-0.65	-0.44
O=C(Nc1nc2ccccc2s1)c1ccc(Cl)s1	-0.05	4.17
CN1Cc2c(N3CCOCC3)nc3sc(C(=O)c4ccccc4)c(N)c3c2CC1(C)C	/	-3.19
Cc1c(C(=O)Nc2ccc(F)cc2F)sc2ncn(CC(=O)N3CCN(c4ccccn4)CC3)c(=O)c12	/	1.33
CCCC1Oc2ccc([N+](=O)[O-])cc2C2OC(c3ccccc3)(c3ccccc3)c3ccccc3N12 (stereo not given)	/	0.125
CN(NC(=O)Nc1ccc(Cl)cc1)c1nc2ccccc2nc1C(F)(F)F	/	-0.37
O=S(=O)(NN1CCOCC1)c1ccc2ccccc2c1	-0.1	-0.145
N#Cc1c(N)n(-c2cccc(N)c2)c2nc3ccccc3nc12	0.7	/
Cc1nn2c(-c3ccccc3)nnc2c2ccccc12	0.4	2.63
CC(C)(C)NC(=O)[C@@H]1Cc2ccccc2CN1	-0.35	0.17
CCOC(=O)c1c(C)[nH]c(C)c1C(=O)COC(=O)c1ccc(Cl)c(S(N)(=O)=O)c1	0.35	/
COc1ccc(Nc2nc(NCc3ccco3)nc(OC)n2)c(OC)c1	/	0.35
Cc1oc2c(c1C(=O)N1CCc3ccccc31)C1=NCCN1C=N2	0.25	-0.725
O=C1C(c2ccccc2)=Nc2ccccc21	-0.4	-0.995
Cc1cc(C)n(C(C)CC(=O)NC2CCC(C)CC2)n1 (stereo not given)	0.4	-0.29
COc1cc(C(F)(F)F)nc(Oc2cc(Cl)c(Cl)cc2Cl)n1	/	-0.22
COc1ccc(-c2c3c(nc4sc(C(=O)N5CCCCCC5)c(N)c24)CC(C)(C)CC3=O)cc1	-0.2	0.985
CC(C)(C)OC(=O)C(CC(N)=O)NC(=O)OCCc1cccc(Cl)c1 (stereo not given)	/	-0.41
CCOc1cc(-c2noc(CCCC(=O)N3CCOCC3)n2)cc(Br)c1OC	-0.45	0.475
CCOC(=O)N1CCC(N2CCCC(C(=O)N3CCCC3)C2)CC1 (stereo not given)	-0.4	-0.455
Cc1c(C(=O)N2CCN(Cc3ccc4c(c3)OCO4)CC2)sc2ncnc(N3CCC(C)CC3)c12	/	-0.81
CCN(CC)Cc1c(O)ccc2c(=O)c(-c3ccccc3)coc12	-0.7	46.2
O=C(Nc1ccn(C2OC(CO)C(O)C2O)c(=O)n1)c1ccccc1 (stereo not given)	0.6	-0.07
CC1CCN(c2ccc(NC(=O)c3ccccc3)cc2)CC1	1.5	0.455
CC1(C)CC(=O)c2c(Cc3ccccc3)noc2C1	-0.1	-0.775

Next part:
SMILES	AID504770	CapD inh
O=C(NCc1ccco1)Nc1c[nH]c2ccc(F)cc2c1=O	0	/
O=C(COc1ccc(Br)cc1CO)NCC(F)(F)F	-2.3	/
CC(=O)Nc1ccc(NC(=O)CCSc2ccccc2)cc1	2.95	0.525
CC/C(=N\NC(=O)c1ccncc1)c1cccc(Cl)c1	1.1	0.25
CCOc1ccc(N(CC)S(=O)(=O)c2cccc3nsnc23)cc1	/	0.375
O=C(/C=C/c1ccco1)C1(O)CCCCC1	0.15	-5.62*
N#Cc1c(COc2ccc(Cl)cc2Cl)nc(=O)n(-c2ccccc2)c1N	/	0.66
COCCn1c(SCC(=O)NC(=O)CN2CCCC2=O)nc2ccccc2c1=O	0.3	/
Cc1nn(-c2ccccc2)c(C)c1CN1CCCCC1COC(=O)NCc1csc2ccccc12 (stereo not given)	/	0.235
CC(=O)NC1C(=O)Nc2ccccc2S(=O)(=O)C1c1ccccc1 (stereo not given)	-0.35	-1.13
Cc1cccc(OCc2nnc(SCC(=O)N(C(C)C)C(C)C)n2Cc2ccco2)c1C	-0.45	/
CC1=Nc2cccc3cccc(c23)N1c1ccccc1	-0.4	-1.85
CC(COC(=O)NNC(=O)c1csc(Cn2cnc(Cl)c2Cl)n1)c1ccccc1 (stereo not given)	/	2.22
CCc1nnc2n1N=C(c1ccc(-c3ccc(Cl)cc3Cl)o1)CS2	0.2	1.39
Cc1nc2cc(NC(=O)CCS(=O)(=O)c3ccccc3)ccc2s1	-0.55	/
CC(C)(C)c1ccc(C(=O)NNC(=O)C2OC3OC4(CCCCC4)OC3C3OC4(CCCCC4)OC23)cc1 (stereo not given)	/	-0.445
CC1=C(C(=O)Nc2ccc(C)cn2)C(c2ccccc2C(F)(F)F)C2=C(CC(C)(C)CC2=O)N1 (stereo not given)	/	5.22
CCOC(=O)c1cnc(SCC(=O)c2ccc(Cl)cc2)[nH]1	1.6	-0.095
COc1ccc(-c2c[n+](CC(=O)OC3CC(C)CCC3C(C)C)c3n2CCCCC3)cc1 (stereo not given)	/	-0.135
COCCn1c(C)cc(C(=O)COC(=O)Cn2c(C)csc2=O)c1C	-0.2	/
CC(=O)c1cccc(NC(=O)/C(=C/c2cccc([N+](=O)[O-])c2)NC(=O)c2ccccc2Br)c1	/	0.21
CCCC(=O)N1c2ccccc2C(=C2SC(C(=O)OC)=C(C(=O)OC)S2)C(=S)C1(C)C	/	-0.12
CCc1ccc(-c2nc(CSCC(=O)N3CCN(c4ccccc4)CC3)c(C)o2)cc1	-0.85	0.065
CCOC(=O)c1c(C)oc2ncnc(NC(C(=O)OCC)C(C)O)c12 (stereo not given)	-0.9	0.08
CCOc1ncccc1C(=O)N(CC)CC(=O)NCc1ccc(Cl)cc1	-0.25	/

(list continues)
SMILES	AID504770	CapD inh
O/C(=C\c1nc2ccccc2[nH]1)C(F)(F)F	0.95	0.61
CCCN1CCC(Nc2ccc(SC)cc2)CC1	0.05	0.64
O=C(O)c1ccc(/C=N/N2C(=O)c3cccc4cccc(c34)C2=O)cc1	-0.7	-1.05
CCOc1ccc2[nH]c(S(=O)(=O)CC)nc2c1Cl	1.45	-0.51
NC(=O)C(F)(F)c1ccccc1	0.45	0.485
S=C1NC2Nc3ccccc3C2=NN1CC1CCCO1 (stereo not given)	0.45	/
CN(C)c1ccc(NC(=O)COC(=O)c2cc(Br)ccc2Cl)cc1	0.3	-0.245
COc1ccc(N(Cc2cc3cccc4c3n(c2=O)CCC4)S(=O)(=O)c2ccccc2)cc1	/	-0.07
Clc1ncnc2c1oc1ccccc12	1.4	/
O=C(NCCN1CCN(Cc2ccc(Br)cc2)CC1)C(=O)Nc1ccc(Cl)cc1	/	0.115
CCOC(=O)Nc1ccc2c(CN3CCN(S(=O)(=O)c4ccccc4)CC3)cc(=O)oc2c1	0.5	/
O=c1[nH][nH]c(=O)c2cc(N3CCCC3)ccc12	0.05	4.53
CC(C)Cn1cc(C(=O)N2CCCC2)c2c3ccccc3n(C)c2c1=O	-0.15	-0.345
O=c1c2sccc2[nH]c(=S)n1CC1CCCO1 (stereo not given)	0.15	0.555
CC(C)n1c(=O)c(=O)[nH]c2cc(C(F)(F)F)ccc21	/	-0.435
O=C(COC(=O)C1(c2ccc(F)cc2)CCCC1)N1CCN(C(=O)c2ccco2)CC1	0.2	/
CCc1noc(C)c1C(=O)Nc1cccc(Cn2cc(Cl)cn2)c1	-0.35	0.17
CCc1ccc(C2C(C#N)=C(N)N(N3CCOCC3)C3=C2C(=O)CC(C)(C)C3)cc1 (stereo not given)	0.15	-0.125

Reformatted: 16 of the compounds above
Molecule | AID504770 | CapD inh
O=C(O)c1ccc(/C=N/N2C(=O)c3cccc4cccc(c34)C2=O)cc1 | -0.7 | -1.05
CCOc1ccc2[nH]c(S(=O)(=O)CC)nc2c1Cl | 1.45 | -0.51
NC(=O)C(F)(F)c1ccccc1 | 0.45 | 0.485
S=C1NC2Nc3ccccc3C2=NN1CC1CCCO1 (stereo not given) | 0.45 | /
CN(C)c1ccc(NC(=O)COC(=O)c2cc(Br)ccc2Cl)cc1 | 0.3 | -0.245
COc1ccc(N(Cc2cc3cccc4c3n(c2=O)CCC4)S(=O)(=O)c2ccccc2)cc1 | / | -0.07
Clc1ncnc2c1oc1ccccc12 | 1.4 | /
O=C(NCCN1CCN(Cc2ccc(Br)cc2)CC1)C(=O)Nc1ccc(Cl)cc1 | / | 0.115
CCOC(=O)Nc1ccc2c(CN3CCN(S(=O)(=O)c4ccccc4)CC3)cc(=O)oc2c1 | 0.5 | /
O=c1[nH][nH]c(=O)c2cc(N3CCCC3)ccc12 | 0.05 | 4.53
CC(C)Cn1cc(C(=O)N2CCCC2)c2c3ccccc3n(C)c2c1=O | -0.15 | -0.345
O=c1c2sccc2[nH]c(=S)n1CC1CCCO1 (stereo not given) | 0.15 | 0.555
CC(C)n1c(=O)c(=O)[nH]c2cc(C(F)(F)F)ccc21 | / | -0.435
O=C(COC(=O)C1(c2ccc(F)cc2)CCCC1)N1CCN(C(=O)c2ccco2)CC1 | 0.2 | /
CCc1noc(C)c1C(=O)Nc1cccc(Cn2cc(Cl)cn2)c1 | -0.35 | 0.17
CCc1ccc(C2C(C#N)=C(N)N(N3CCOCC3)C3=C2C(=O)CC(C)(C)C3)cc1 (stereo not given) | 0.15 | -0.125
